# SARS PLP yeast: qHTS of Yeast-based Assay for SARS-CoV PLP; actives 0.19% (n = 330,000); Potency, µM (doses to about 32.9 µM), for inactives: at the highest dose activity, positive = growth rescue; S. cerevisiae expressing SARS-CoV PLpro, growth rescue; control for the full effect not named in the record; note: 0% is about no effect; nearly all actives have a fitted effect of over 55% in size; growth read by luminescence after 48 h
# MARV entry inh: qHTS for inhibitors of binding or entry into cells for Marburg Virus; Marburg virus pseudotyped entry inhibition, cell reporter; control for the full effect not named in the record; about a third of the inactives were read at about 46 µM; actives 1.8% (n = 300,000); Potency, µM (series often up to 37.8 µM), for the others: at the highest dose activity change, negative = inhibition, most hits filed as inhibitors; AID 540276, 2011; active = well fitted inhibition curve with a large enough effect; inconclusive = small, poorly fitted or top-dose-only effect, or effect the other way; inactive = flat fitted curve, though single readings scatter; tested in HEK293 cells; about a fifth of its hits are not listed in these tables; note: % is set by controls: 0 for no effect and ±100 for the full control effect; luciferase read-out
# NS1 inh: qHTS Assay for Inhibitors of Influenza NS1 Protein Function. S. cerevisiae slowed by influenza A NS1, growth recovery by OD600. Potency, µM (highest dose often 46.1 µM), inactives show at the highest dose activity, positive = more growth. actives 0.4% (n = 270,000); note: actives are rising curves; nearly all actives have a fitted effect of over 50% in size
#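 OD600 was taken as the measure of yeast growth restored by compound in an NS1-expressing S. cerevisiae strain. Cells had been washed out of glucose medium and diluted 1:100 into galactose -URA medium, pH 6.0.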
# 2A StopGo: High Throughput Screening for Foot and Mouth Disease Virus Antivirals | actives 1.2% (n = 410,000) | Potency, µM (top dose mostly 57.9 µM), inactives show at the top dose signal change, negative = less light | AID 1159524, 2015 | human cells with a luciferase reporter of 2A StopGo recoding; control for the full effect not named in the record; active = well fitted falling curve with a large enough effect; inconclusive = small, poorly fitted or top-dose-only effect; inactive = no such curve, though single readings can be large or run the other way; tested in HEK293T cells; note: % is set by controls: 0 for no effect and ±100 for the full control effect; nearly all actives have a fitted effect of over 45% in size; luciferase light after 4 h
# RE007 growth inh: qHTS Assay for Inhibitors of the HIV-1 protein Vpr; S. pombe RE007 Vpr strain, BacTiter-Glo ATP luminescence, 24 h; control for the full effect not named in the record; Potency, µM (series often up to 92.2 µM), for inactives: at the top dose activity change, negative = less growth; actives 0.21% (n = 360,000); AID 651644, 2012; active = well fitted falling curve with a large enough effect; inconclusive = small, poorly fitted or top-dose-only effect; inactive = no such curve, though single readings can be large or run the other way;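 note: % is set by controls: 0 for no effect and ±100 for the full control effect; nearly all actives have a fitted effect of over 50% in size; the assay follows cell death caused by Vpr and the record does not say whether a fall means rescue or toxicity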
#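 Fission yeast strain RE007, carrying one chromosomally integrated HIV-1 vpr copy, was seeded at OD 0.01 in PMG+AL medium with 23 nL pinned compound. After 24 h at 30 °C and 99% humidity, viability was read by BacTiter-Glo luminescence.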
# LASV entry inh: qHTS for Inhibitors of binding or entry into cells for Lassa Virus | Lassa virus pseudotype entry inhibition, cell reporter; control for the full effect not named in the record | Potency, µM (doses to about 37.9 µM), inactives show top-dose activity change, negative = inhibition, actives largely listed as inhibitors | actives 1.2% (n = 300,000) | AID 540256, 2011; active means well fitted inhibition curve with a large enough effect; inconclusive means small, poorly fitted or top-dose-only effect, or effect the other way; inactive means flat fitted curve, though single readings scatter; tested in HEK293 cells; note: % is set by controls: 0 for no effect and ±100 for the full control effect; nearly all actives have a fitted effect of over 50% in size; luciferase read-out
# Cruzain Triton: qHTS Assay for Promiscuous and Specific Inhibitors of Cruzain (with detergent) | AID 1478, 2009 | Cruzipain (Trypanosoma cruzi), P25779 | actives 0.43% (n = 200,000) | Potency, µM, inactives show max response, negative = inhibition, most hits filed as inhibitors | purified cruzain, Z-FR-AMC fluorescence, 0.01% Triton; active = well fitted curve in the direction sought with a large enough effect; inconclusive = small, poorly fitted or top-dose-only effect, or another doubt; inactive = no such curve, though single readings can be large; an effect the other way counts as inactive or inconclusive;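 note: plate controls were neutral wells for no effect and buffer without enzyme for full effect; nearly all actives have a fitted effect of over 40% in size; top concentration of the series not given in the record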
# Target sequence (P25779 123-467 limits assumed): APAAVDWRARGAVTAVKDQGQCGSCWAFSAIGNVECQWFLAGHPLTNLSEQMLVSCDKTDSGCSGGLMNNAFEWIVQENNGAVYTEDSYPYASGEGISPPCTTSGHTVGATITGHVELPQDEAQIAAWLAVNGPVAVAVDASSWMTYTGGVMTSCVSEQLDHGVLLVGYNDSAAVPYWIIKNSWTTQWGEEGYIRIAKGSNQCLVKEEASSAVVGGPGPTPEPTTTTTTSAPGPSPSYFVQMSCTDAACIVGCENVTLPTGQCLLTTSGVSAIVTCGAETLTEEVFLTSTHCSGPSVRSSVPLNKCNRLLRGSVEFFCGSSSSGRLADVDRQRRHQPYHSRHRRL
#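 Detergent-containing run (0.01% Triton X-100) in acetate buffer pH 5.5 with 5 mM DTT: enzyme at 1.5 nM final, 15 min compound preincubation at room temperature, then 2 uM Z-FR-AMC substrate. Activity taken as 60 s fluorescence increase at 360/450 nm.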
# Cruzain noTriton: qHTS Assay for Promiscuous and Specific Inhibitors of Cruzain (without detergent) | AID 1476, 2009 | actives 2.3% (n = 200,000) | purified cruzain, Z-FR-AMC fluorescence, no detergent | Cruzipain (Trypanosoma cruzi), P25779 | Potency, µM, inactives show max response, negative = inhibition, hits mostly inhibitors; active = well fitted curve in the direction sought with a large enough effect; inconclusive = small, poorly fitted or top-dose-only effect, or another doubt; inactive = no such curve, though single readings can be large; an effect the other way counts as inactive or inconclusive;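 note: plate controls were enzyme without inhibitor for no effect and buffer without enzyme for full effect; nearly all actives have a fitted effect of over 40% in size; top concentration of the series not given in the record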
#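 Purified cruzain at 1.5 nM, pre-incubated 15 min with compound at room temperature in 100 mM sodium acetate pH 5.5, 5 mM DTT, 0.00005% Triton X-100. Reaction started with 2 uM Z-FR-AMC; AMC fluorescence increase over 60 s gives rate.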
# An asterisk follows results filed as active; ? = inconclusive; . = no result given; & = joins results of further samples; [ ] = dose if it differs, or a comment. Unless noted, calls come from the whole dose curve; as a rule, active means well fitted rising curve with a large enough effect; inconclusive means small, poorly fitted or top-dose-only effect; inactive means no such curve, though single readings can be large or run the other way. Potency is the fitted concentration of half-maximal effect.
item	molecule	SARS PLP yeast	MARV entry inh	NS1 inh	2A StopGo	RE007 growth inh	LASV entry inh	Cruzain Triton	Cruzain noTriton
1	Cc1cc2nc(-c3ccc4c(c3)CCC4)ccn2n1	1.3%	?	-33.3%	20.0%	5.4%	-0.4%[46.1 µM]	.	.
2	Nc1nc(Nc2ccccc2F)nc(NCc2ccco2)c1[N+](=O)[O-]	-0.2%	.	7.5%	0.2%	11.7%	.	.	.
3	CCOC(=O)C1(CCCc2ccccc2)CCN(C(=O)CCC2=NNC(=O)CC2)CC1	-0.3%	.	2.4%	-11.5%	9.0%	.	.	.
4	Nc1cc(S(=O)(=O)N2CCOCC2)ccc1Oc1cccc(Br)c1	-2.7%	?	.	?	2.8%	?	.	.
5	Cc1c(NC(=O)C(C)NCC2CCCO2)c(=O)n(-c2ccccc2)n1C (centres undefined)	17.0%	-0.9%	2.3%	-15.3%	2.1%	2.0%	4.8%	12.3%
6	Cc1ccc2nc(/C(C#N)=C/c3ccc(-c4ccc(C(=O)OC(C)C)cc4)o3)[nH]c2c1	.	?	.	-8.9%	.	-0.4%[46.1 µM]	-3.1%	12.6µM*
7	Cc1ccc(-n2cccc2C(=O)NS(=O)(=O)c2ccc(C)cc2)cc1	-1.7%	.	-0.4%	-1.2%	1.3%	.	.	.
8	O=c1c(=O)n(Cc2c(F)cccc2Cl)ccn1Cc1ccccc1	.	.	.	23.4%	.	?	-1.4%	-2.8%
9	COc1ccc(O[C@@H]2O[C@H](COC(C)=O)[C@@H](OC(C)=O)[C@H](OC(C)=O)[C@H]2NC(C)=O)cc1	13.0%	-9.6%	26.0%	-16.0%	-0.5%	7.6%	-0.2%	-2.3%
10	Cn1c(C(=O)O)ccc1S(=O)(=O)N(Cc1ccccc1)Cc1ccccc1	0.3%	1.0%	2.8%	21.5%	12.9%	.	.	.
11	COc1ccc(C=CC(O)CCN2CCC3CCC(C3)C2)cc1 (centres undefined)	.	?	.	-8.2%	-2.8%	-11.3%[46.1 µM]	.	.
12	O=C(CSc1n[nH]c(-c2ccncc2)n1)Nc1ccc(Cl)c(C(=O)O)c1	1.5%	-3.4%[46.1 µM]	5.7%	13.3%	7.0%	-11.9%	.	.
13	COCCSc1ccccc1C(=O)N1CCN(c2ccccc2)CC1	1.0%	-19.5%	-3.4%	-8.9%	-10.9%	-27.4%	.	.
14	CCCCC(=O)Nc1ccc(C)c(O)c1	-1.9%	?	-2.4%	30.1%[activator]	1.9%	0.5%	3.9%	-7.1%
15	Cc1cccc(OCCSc2nc3ncnc(N)c3[nH]2)c1	7.1%	?	.	-6.0%	1.8%	-18.6%[46.1 µM]	.	.
16	COc1cccc(C2CC(c3c(-c4ccccc4)c4cc(Cl)ccc4[nH]c3=O)=NN2S(C)(=O)=O)c1OC (centres undefined)	-5.8%	?	?	?	1.3%	?	-3.3%	?
17	CCCCOc1ccc(-c2ncc(C(=O)OCC)c(N)n2)cc1	0.5%	-0.1%	-1.1%	-3.6%	-0.1%	-29.7%	-7.4%	?
18	COC(=O)C1=COC(OC2OC(CO)C(O)C(O)C2O)C2C1C=CC2(O)CO (centres undefined)	2.3%	.	2.8%	-18.6%	28.7%	.	.	.
19	O=C(c1cc2c(s1)-c1ccccc1OC2)N1CCc2ccccc2C1	-34.6%	8.7%	-18.1%	38.0%[activator]	-4.7%	14.0%	-19.8%	?
20	COc1ccc(OCc2cc(C(=O)N(C)C(C)c3ccon3)no2)c(Cl)c1 (centres undefined)	12.2%	-6.9%	-17.5%	31.8%[activator]	1.3%	3.3%	.	.
21	Cc1cc(NC(=O)COC(=O)CC2CCCC2)c([N+](=O)[O-])cc1C	0.4%	-5.3%[46.1 µM]	-4.7%	-6.7%	3.7%	29.2%[46.1 µM]	.	.
22	Cc1ccc(NC(=O)CCC(=O)NCCO)cc1	0.0%	?	5.1%	-10.0%	-7.1%	-1.3%	3.0%	0.6%
23	Cc1ccsc1C(=O)Nc1cc(Cl)ccc1-n1cncn1	.	6.4%	.	33.7%[activator]	5.0%	-3.4%	.	.
24	OCC1OC(n2cnc3c(NCc4ccco4)ncnc32)C(O)C1O (centres undefined)	.	?	.	-15.6%&-3.5%	2.6%	4.47µM*	2.0%	-10.2%
25	COc1ccccc1CNC(=O)CN1C(=O)CSc2ccc(S(=O)(=O)N3CCCCC3)cc21	.	.	.	12.5%	.	12.5%[46.1 µM]	0.3%	-24.0%
26	CCCCSc1nnc(-c2ccccc2)c2ccccc12	-17.2%	1.8%	-15.7%	-22.5%	25.2%	-7.6%	-7.4%	-6.9%
27	COc1ccc(S(=O)(=O)NCC2CCCN(Cc3ccc(C)o3)C2)cc1 (centres undefined)	0.8%	-21.2%[14.2 µM]	4.5%	4.1%	2.3%	3.3%	.	.
28	O=[N+]([O-])c1ccc(N2CCN(c3ccc(F)cc3)CC2)cc1	2.6%	0.3%[46.1 µM]	-3.2%	-5.1%	-5.3%	-3.6%[46.1 µM]	.	.
29	Cc1cccc(C(=O)Nc2nnc(SCC(=O)NC3CC3)s2)c1	4.1%	?	3.0%	31.6%[activator]	8.5%	21.6%[46.1 µM]	.	.
30	NS(=O)(=O)c1ccc(CCNC(=O)C2CCCCN2S(=O)(=O)c2ccccc2)cc1 (centres undefined)	-12.3%	0.6%	-0.5%	2.4%	16.8%	6.5%	0.4%	-6.3%

# The list continues.
item	molecule	SARS PLP yeast	MARV entry inh	NS1 inh	2A StopGo	RE007 growth inh	LASV entry inh	Cruzain Triton	Cruzain noTriton
31	Cc1nc([N+](=O)[O-])c(Sc2nc3ccccc3n2C)n1Cc1ccccc1	-11.2%	?	2.1%	25.1µM*	-5.7%	?	-5.1%	6.6%
32	COc1ccc(C(C(=O)Nc2ccc(C(C)C)cc2)N(C)C(=O)Cc2cccs2)cc1 (centres undefined)	.	8.7%[46.1 µM]	.	8.2%	.	?	-0.1%	11.2%
33	CCN(CC(=O)Nc1cccc(OC)c1)C(=O)c1ccco1	1.9%	.	-1.9%	8.5%	-5.0%	.	.	.
34	COc1ccccc1N1CC(C(=O)Nc2cccc(C(=O)O)c2)CC1=O (centres undefined)	-0.9%	?	-5.5%	4.4%	7.0%	-15.5%	7.4%	-0.2%
35	CCN(CC)S(=O)(=O)c1cccc(NC(=O)COC(=O)c2ccc(Br)o2)c1	1.1%	8.0%	2.4%	-5.7%	5.2%	4.7%	-4.3%	11.7%
36	CCOc1ccc(N2C(=O)C3C(c4ccc(O)cc4)NC(CCSC)(C(=O)OC)C3C2=O)cc1 (centres undefined)	0.7%	2.3%[14.2 µM]	2.3%	-13.9%	-1.4%	-11.9%	.	.
37	O=C(C1CCCO1)N1N=C(c2ccc(Br)cc2)CC1c1ccco1 (centres undefined)	-5.6%	-2.8%	2.8%	-18.9%	5.8%	?	-13.3%	?
38	O=C(O)C1C2C=CC(C2)C1C(=O)NCCC1=CCCCC1 (centres undefined)	-14.7%	3.7%	-1.2%	.	-2.6%	20.8%	0.3%	-3.1%
39	O=C(NC(Cc1c[nH]c2ccccc12)C(=O)N/N=C/c1ccc(Br)cc1)c1cccs1 (centres undefined)	-1.0%	?	?	-24.5%	-4.8%	?	.	.
40	COc1ccn(C)c(=O)c1C#N	22.5%	.	2.2%	0.0%	-6.7%	.	1.2%&-2.8%	-4.0%&-11.0%
41	COc1ccc(CNC(=O)c2cc(-c3ccc(C)cc3)nc3n[nH]c(-c4ccc(Br)cc4)c23)cc1	.	.	.	-24.8%	.	-6.0%[46.1 µM]	3.7%	3.8%
42	CCOC(=O)c1ccc(NC(=O)C2(S(=O)(=O)c3ccc(Cl)cc3)CC2)cc1	.	?	.	-16.9%	.	-10.6%[46.1 µM]	-6.5%	-6.4%
43	Cc1nn(-c2ccc(F)cc2)c(Cl)c1/C=N/NC(=O)c1ccc(O)cc1	2.5%	4.1%[46.1 µM]	.	8.1%	-16.8%	?	.	.
44	CCOC(=O)N1CCN(C(=O)c2cccc(S(=O)(=O)Nc3ccc(F)cc3)c2)CC1	.	?	.	30.0%[activator]	5.9%	-4.5%	.	.
45	O=C1CSC(c2ccccc2[N+](=O)[O-])N1c1ccccc1 (centres undefined)	4.8%	17.6%[46.1 µM]	.	-0.8%	18.5%	5.5%	.	.
46	S=C(Nc1ccc(Oc2ccccc2)cc1)N(CCCN1CCOCC1)Cc1ccccn1	-3.5%	-3.3%[46.1 µM]	-2.1%	6.3%	-9.3%	5.2%	.	.
47	COc1cc(F)ccc1S(=O)(=O)N1CCN(c2ccccc2)CC1	-0.7%	.	-14.5%	-18.6%	-1.9%	.	.	.
48	CC(=O)N1CCCc2cc(S(=O)(=O)NCc3ccc(N(C)C)cc3)ccc21	.	.	.	-6.3%	.	1.8%[46.1 µM]	0.3%	-11.1%
49	CCc1ccc(CNC(=O)C2CCN(C(=O)N3CC(CC)Oc4ccc(C)cc43)CC2)cc1 (centres undefined)	.	.	.	?	.	0.6%[46.1 µM]	0.0%	4.6%
50	CCCn1c(SCC(=O)NC2CCCC2)nnc1C(C)C	2.1%	11.3%	-5.7%	8.0%	-15.0%	5.9%	.	.
51	CC(=O)Nc1ccccc1C(=O)C(=O)Nc1ccc(Cl)cc1	-0.8%	15.8%	.	30.6%[activator]	-5.5%	?	.	.
52	N/C(=N\OC(=O)Oc1ccccc1)c1ccc([N+](=O)[O-])cc1	-0.7%	10.2%	3.4%	-24.2%	-21.5%	?	-3.7%	0.2%
53	COC(=O)c1scc(C)c1NC(=O)c1ccc(Cl)cc1	-0.9%	-3.7%	-6.6%	-19.8%	-9.6%	4.7%	.	.
54	COc1ccc(-n2c(C)c([N+](=O)[O-])c3ccc(O)c(CN(C)C)c32)cc1	-2.3%	?	?	-27.6%	-9.9%	-24.3%	-20.7%	25.1µM*

# Screening data deposited in PubChem by National Center for Advancing Translational Sciences (NCATS).
